# Rango complex inh = prevents formation of the Rango-importin beta complex; Q14974; Rango CFP/YFP FRET sensor + importin beta, 45 min; Potency, µM (doses to about 92.2 µM), for inactives: top-dose inhibition of complex formation; 340,000 tested, 0.031% active; AID 540263; active = rising FRET ratio curve, often small or poorly fitted; inconclusive = mostly compound fluorescence or quenching in the first reads; inactive = flat curves in all reads;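 note: potency is the fitted concentration of half-maximal effect; 0% = DMSO wells and 100% = buffer wells lacking importin beta; nearly all actives have a fitted effect of over 15% in size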
#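 FRET biosensor Rango (snurportin 1 IBB between N-terminal EYFP and C-terminal Cerulean), 50 nM in PBS/1 mM DTT/0.02% Tween-20/0.1% BSA, preincubated 5 min RT with compound; 0.125 microM importin beta added, 45 min RT, CFP/YFP FRET ratio read.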
# miR-21 reporter = raises the signal of a miR-21 reporter | HeLa miR-21 FLuc reporter, luciferase, 48 h | Potency, µM (titrated, usually from 38.3 µM), for the others: top-dose reporter change, positive = more light | 340,000 tested, under 10 active | AID 2288; active = well fitted rising curve with a large enough effect; inconclusive = small, poorly fitted or top-dose-only effect; inactive = no such curve, though single readings can be large or run the other way;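 note: % of control where 0% means no effect; miR-21 action dims this reporter so a rising signal means less miR-21 action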
#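 HeLa miR-21-FLuc reporter line, endogenous miR-21; 2000 cells/well in DMEM/10% FBS; compound titration up to ~40uM final, 48 h, 37 degree Celsius; luciferase detection reagent, 15 min lysis, CCD luminescence.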
# Rango release inh = inhibition of RanGTP-driven Rango-importin beta dissociation; O95149+P62826; Biochemical FRET Rango-importin beta, RanGTP-induced dissociation; Potency, µM (titrated, usually from 46.1 µM), for the others: at the highest dose activity change, negative = inhibition; 340,000 tested, 0.071% active; AID 540253; active means falling FRET ratio curve, often poorly fitted, with flat reads before Ran was added; inconclusive means other falling curves, or compound fluorescence or quenching; inactive means flat or rising ratio curve;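 note: potency is the fitted concentration of half-maximal effect; % of control where 0% means no effect; nearly all actives have a fitted effect of over 45% in size; -100% = wells without RanGTP and RCC1; the record marks most hits as doubtful in a second field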
#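 Two FRET readings bracket the reaction: one 5 min after compound meets Rango–importin beta, another 45 min after RanGTP-RCC1 (0.6 uM Ran, 0.2 uM RCC1, 2 mM GTP) is added. Only the second defines inhibition.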
# GLA inh pH 4.5 = alpha-galactosidase A (human) inhibition, pH 4.5. 230,000 tested, under 10 active. AID 1467. P06280. activity change, negative = inhibition, % at 105 µM. purified enzyme, 4-MU-alpha-Gal fluorescence, pH 4.5; inconclusive = small, poorly fitted or top-dose-only inhibition, or a rising curve; inactive = flat fitted curve, though single readings scatter; no compound was filed as active;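 note: 0% = full activity with enzyme and -100% = basal without enzyme; dose as in the result columns while the protocol names 77 µM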
# Target sequence (P06280 whole entry, looked up): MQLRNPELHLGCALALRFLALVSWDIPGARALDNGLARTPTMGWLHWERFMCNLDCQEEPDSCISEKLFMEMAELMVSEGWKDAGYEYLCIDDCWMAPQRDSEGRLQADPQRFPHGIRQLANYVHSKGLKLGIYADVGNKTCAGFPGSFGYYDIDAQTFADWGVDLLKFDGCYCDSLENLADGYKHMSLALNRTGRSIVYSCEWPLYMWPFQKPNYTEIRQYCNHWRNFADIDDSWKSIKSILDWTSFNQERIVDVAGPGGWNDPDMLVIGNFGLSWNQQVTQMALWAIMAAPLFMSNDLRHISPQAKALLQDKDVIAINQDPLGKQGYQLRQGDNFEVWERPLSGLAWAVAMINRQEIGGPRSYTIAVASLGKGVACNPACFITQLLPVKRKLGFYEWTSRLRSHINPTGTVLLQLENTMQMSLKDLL
# The depositor's hits bear a star; ? = inconclusive; · = no result given. An excerpt; count on the stated rates, not on these rows.
molecule	miR-21 reporter	Rango complex inh	GLA inh pH 4.5	Rango release inh
Clc1ccccc1OCCn1ccnc1	-4%	-0.5%	7	2%
COc1ccc(CNC(=O)CC2C[C@H](C(=O)N3CCOCC3)[C@@]3(C)c4[nH]c5ccccc5c4CCN3C2=O)cc1OC (stereo not given in full)	·	1.4%	·	1%
Cc1ccc(NC(=O)COC(=O)C2CC(=O)N(Cc3ccccc3)C2)cc1F (stereo not given)	5%	0.8%	6	-5%
O=C(NCCN1CCCC1)c1ccc2c(c1)N(Cc1ccc(F)cc1)C(=O)c1ccccc1S2=O (stereo not given)	-14%	0.4%	6	8%
C=C(C)c1cccc(C(C)(C)NC(=O)N2CCOCC2)c1	2%	-1.0%	1	-4%
CCC(C)(C)n1nnnc1C(c1ccc(C)cc1)N(Cc1ccco1)Cc1cccs1 (stereo not given)	8%	-2.7%	12	-9%
Nc1cccc2c(=O)c3ccccc3[nH]c12	4%	?	·	?
Cc1ccc(C(=O)NC(=S)NCc2cccnc2)cc1C	-8%	-0.5%	4	0%
O=C(c1ccc2c(c1)OCCO2)C1CCN(S(=O)(=O)c2ccc(F)cc2)CC1	-1%	0.9%	1	16%
COc1ccc2nc(NC(=O)C3CCCN(S(=O)(=O)c4cccc5nonc45)C3)sc2c1 (stereo not given)	4%	-4.7%	-3	3%
COc1ccccc1CN1[C@@H](CC(=O)O)c2cc(F)ccc2S1(=O)=O	·	-2.1%	·	1%
Cn1cc(C(=O)N/N=C/c2c(O)ccc3ccccc23)ccc1=O	?	?	0	?
COc1cc(CC(=O)OCC(=O)NC2CCCCC2C)cc(OC)c1OC (stereo not given)	·	1.1%	·	7%
Nc1nc(NC(=O)c2ccc(Cl)cc2)nn1-c1ccccc1	-19%	-1.7%	10	-6%
OC1(c2ccc3ccccc3c2)CCN(Cc2ccccc2)C1 (stereo not given)	-24%	3.2%	-18	0%
O=C(CSc1nc2ccccc2c(=O)[nH]1)N1CCN(S(=O)(=O)c2ccccc2)CC1	-2%	0.0%	3	-2%
Cc1ccc(CNS(=O)(=O)c2c(C)[nH]c(=O)[nH]c2=O)cc1	-2%	-1.6%	·	-4%
COc1ccc(-n2c(NCCN(C)C)nc3sc4c(c3c2=O)CCCCC4)cc1	0%	-1.6%	-6	19%
COC(OC)c1ccnc(-c2ccc(OC(=O)c3ccccc3)cc2)n1	-17%	-2.2%	-4	-5%
O=C(CSCc1cccc(Br)c1)N/N=C/c1ccc2c(c1)OCO2	-1%	2.4%	2	0%
O=C(O)c1cc(-c2ccccc2Cl)n[nH]1	1%	1.2%	-5	15%
Cc1cc(N/C(=N/S(=O)(=O)c2ccc(F)cc2)c2ccccc2)n(-c2ccccc2)n1	-16%	4.9%	-9	-11%
COc1ccc(CCC(C)Nc2cccc(F)c2)cc1 (stereo not given)	-7%	-0.6%	3	-10%
CNC(=S)NN(C)c1nc(C)cc(C)n1	27%	0.3%	-1	5%
O=C(O)C1Cc2ccccc2CN1S(=O)(=O)c1ccccc1 (stereo not given)	2%	-0.3%	-11	-7%
Cc1ccc(S(=O)(=O)N2CCN(C(=O)CN3CCCC3)C2)cc1	-6%	-3.6%	3	-16%
CCc1ccc(S(=O)(=O)/N=C2/C=C(Sc3ncn[nH]3)C(=O)c3ccccc32)cc1	?	-1.0%	-2	4%
Cc1ccc(CNC(=O)C2CCCCC2C(=O)O)cc1 (stereo not given)	-8%	?	7	-13%
Cc1ncn2cc(-c3ccc(Cl)cc3Cl)[nH]c(=O)c12	12%	?	6	3%
O=C(c1ccc(CS(=O)(=O)c2ccc(Br)cc2)o1)N1CCN(C2CCCCC2)CC1	0%	·	-5	·
CCN(CC(=O)Nc1ccc(S(=O)(=O)N2CCCCC2)cc1)Cc1ccccc1	·	0.6%	·	-7%
COc1cc(OC)c(OC)cc1/C=C1\CCC(C2CCCC2)C1=O (stereo not given)	9%	?	-18	?
O=C(O)c1ccc(-n2c(/C=C/c3cccc([N+](=O)[O-])c3)nc3ccccc3c2=O)cc1	2%	0.4%	·	-10%
O=C(Cc1ccccn1)c1ccc(Cl)cc1	·	?	·	-7%
CCOc1ccc(C(NC(=O)/C=C/c2ccco2)c2ccc(OC)c(OC)c2)cc1 (stereo not given)	4%	-1.3%	-2	2%
O=C(COC(=O)c1ccccc1C(=O)OCC(=O)NCCc1c[nH]c2ccccc12)NCCc1c[nH]c2ccccc12	·	0.9%	·	12%
C=CCn1c(O)c(N=NC(=S)Nc2ccc(OC)c(Cl)c2)c2ccccc21	19%	0.9%	-2	21%
COc1cc(OC)cc(-c2nnc(Sc3ccc(C=O)cc3[N+](=O)[O-])o2)c1	-3%	·	-7	·
CCC(CO)NCc1ccc(OC2CCCC2)cc1 (stereo not given)	-8%	0.1%	-7	-2%
O=C(c1ccsc1)N1CCCC(N2CCN(c3ccccc3F)CC2)C1 (stereo not given)	-11%	-3.9%	·	2%
CCOC(=O)CSc1nc(C2CC2)cc(-c2ccc(Cl)cc2)c1C#N	0%	-3.2%	-6	-1%
COc1ccc(C)cc1S(=O)(=O)Nc1cccnc1	1%	-2.3%	1	-1%
COCCCNC(CC(=O)Nc1ccc(OC)cc1OC)C(=O)O (stereo not given)	0%	2.9%	10	17%
CC(C)CC(OC(=O)CC1Sc2ccccc2NC1=O)C(=O)NC1CCCC1 (stereo not given)	5%	2.9%	·	3%
O=C(O)c1ccccc1N1C(=O)C2C3c4ccccc4C(Br)(c4ccccc43)C2C1=O (stereo not given)	-1%	0.3%	5	2%
CCOc1ccc(S(=O)(=O)N2CCC(C(=O)Nc3cccc(NC(C)=O)c3)CC2)cc1	-2%	6.9%	·	-8%
Cc1cc(=O)[nH]c2c(C)cc(S(=O)(=O)N3CCOCC3)cc12	·	0.8%	·	-1%
Cc1ccc(NC(=O)C2CCN(S(=O)(=O)c3cccs3)CC2)cc1C	4%	1.2%	-20	-1%
Cc1cccc(NC(=O)CN2C(=O)COc3ccc(Cl)cc32)c1C	-5%	3.3%	-1	-23%
CC1CCCC(NC(=O)c2cc(S(=O)(=O)N3CCOCC3)ccc2F)C1C (stereo not given)	-9%	-1.4%	·	-4%
Cc1nn(-c2ccccc2)c(C)c1S(=O)(=O)O	1%	1.5%	-4	24%
Nc1nc(NCc2ccco2)nc(Nc2ccccc2)c1[N+](=O)[O-]	-8%	2.2%	-4	-4%
COC(=O)c1ccc(C(=O)OC)c(NS(C)(=O)=O)c1	-3%	-0.7%	-2	-2%
O=c1cc(N2CCN(c3ccccc3)CC2)[nH]c(=O)n1C1CCCCC1	9%	-3.2%	2	-10%
COc1ccc(C(=O)Nc2nnc(-c3cccs3)s2)cc1	-45%	-1.9%	6	3%
O=C(Cn1cccc1C(=O)c1ccccc1)NCc1cccc(Cl)c1	-18%	1.8%	0	12%
Cc1ccc(OC(F)F)c(NC(=O)Nc2ccc3c(c2)OCO3)c1	-3%	-1.2%	·	2%
COc1ccc(N(CC(=O)NCc2ccco2)S(=O)(=O)c2ccc(OC)c(OC)c2)cc1	-9%	-5.8%	-2	2%
N#Cc1cccc(NS(=O)(=O)c2ccc(S(=O)(=O)N3CCOCC3)cc2)c1	·	-1.2%	·	-11%
Cc1ccccc1NS(=O)(=O)c1ccc(C2CNC(=O)C2)cc1 (stereo not given)	-4%	0.7%	-7	-10%

# Single records, as listed above.
# `O=C(COC(=O)c1ccccc1C(=O)OCC(=O)NCCc1c[nH]c2ccccc12)NCCc1c[nH]c2ccccc12` across the screens: miR-21 reporter: ·; Rango complex inh: 0.9%; GLA inh pH 4.5: ·; Rango release inh: 12%
# `Cc1nn(-c2ccccc2)c(C)c1S(=O)(=O)O` across the screens: miR-21 reporter: 1%; Rango complex inh: 1.5%; GLA inh pH 4.5: -4; Rango release inh: 24%
# `O=C(O)c1ccccc1N1C(=O)C2C3c4ccccc4C(Br)(c4ccccc43)C2C1=O` (stereo not given) across the screens: miR-21 reporter: -1%; Rango complex inh: 0.3%; GLA inh pH 4.5: 5; Rango release inh: 2%

# (next part)
molecule	miR-21 reporter	Rango complex inh	GLA inh pH 4.5	Rango release inh
COc1ccc(NC(C)=O)cc1C	1%	2.3%	-6	3%
CCC(CC)N=C1NS(=O)(=O)c2cc([N+](=O)[O-])ccc21	10%	-12%	5	32%
COc1cccc(/C=N/NC(=O)c2nc(-c3ccccc3)cc(-c3ccccc3)n2)c1	-3%	-3.8%	-19	-2%
O=C(N/C(=C/c1ccco1)C(=O)N1CCOCC1)c1ccccc1Br	-5%	1.6%	·	1%
O=C(COC(=O)[C@H](Cc1ccccc1)NC(=O)c1cccs1)Nc1ccccc1C(F)(F)F	-4%	-2.9%	-15	4%
CCOC(=O)c1cnc2c(c(C3CC3)nn2C)c1N1CCOCC1	-1%	1.7%	2	6%
COP(=O)(OC)c1nc(-c2ccccc2)oc1N1CCOCC1	-9%	0.2%	4	17%
CCOC(=O)C(=O)N(Nc1ccc(C)cc1)c1ccc(C)cc1	-73%	2.5%	2	0%
CCCNC(=O)COc1coc(CN2CCN(c3ccccc3)CC2)cc1=O	3%	2.2%	·	1%
Cc1ccc(N2C(=O)Nc3ccccc3C2(O)C(=O)NCCCOC(C)C)cc1C (stereo not given)	1%	?	·	17%
Cc1nc2nc(CC(=O)O)[nH]n2c(=O)c1[N+](=O)[O-]	-1%	-3.6%	-4	-12%
CN(C)S(=O)(=O)c1cccc(-c2nn(-c3ccccc3)cc2/C=C2\SC(=S)NC2=O)c1	-26%	0.1%	1	-4%
CCOc1cc2[nH]c(=S)n(Cc3ccc(C(=O)NCCN(CC)CC)cc3)c(=O)c2cc1OCC	-14%	1.4%	·	4%
Cc1cc(C)c2c(CC(=O)Nc3nccs3)coc2c1	-9%	-2.7%	-4	2%
Nc1cc(N)nc(SCCOc2ccccc2F)n1	-72%	-1.1%	5	-7%
CC1=C(C(=O)OCC2CCCO2)C(c2ccsc2)C2=C(CCCC2=O)N1 (stereo not given)	4%	-1.2%	-3	3%
CCc1nc(Cl)c(C#N)c2c1CCCC2	1%	-0.5%	-2	4%
O=C(O)c1ccc(Cl)c(S(=O)(=O)Nc2ccc3cn[nH]c3c2)c1	0%	0.1%	-1	2%
Cc1cc(C)cc(NC(=O)Cc2ccc(-n3cccc3)cc2)c1	-1%	-0.9%	-3	-12%
Cc1oc(-c2cccs2)nc1CN1CCC(CO)(CCOc2ccccc2)CC1	-3%	-0.2%	-11	-4%
C=CCN1C(=O)CSC1=Nc1ccc(NC(C)=O)cc1	-4%	1.1%	·	-7%
Cc1ccc(S(=O)(=O)NC2CCCC2)cc1C(N)=O	-2%	0.3%	·	1%
CC1CN(c2ccc(Cl)cc2[N+](=O)[O-])CCN1S(C)(=O)=O (stereo not given)	1%	5.6%	-7	0%
O=C(CNc1ccc(Cl)c(C(F)(F)F)c1)N1CCN(S(=O)(=O)c2ccccc2)CC1	·	5.5%	·	-1%
O=C(CN(C(=O)c1csnn1)c1cccc2c1CCCC2)NCc1ccc(F)cc1	7%	1.0%	·	1%
OC(CCc1ccncc1)c1ccccc1 (stereo not given)	·	-1.0%	·	-5%
CC(C)(C)[C@@H]1C=C(C(=O)NC2CC2)O[C@H](OCc2ccc(CO)cc2)C1	11%	-0.8%	-2	1%
CN(C)S(=O)(=O)c1ccc(S(=O)(=O)N2CCCC(C(=O)NC3CCCC3)C2)cc1 (stereo not given)	2%	0.2%	·	-1%
O=c1c2ccccc2c(/C=N/NS(=O)(=O)c2ccccc2)c(O)n1-c1ccccn1	3%	?	-3	?
Cc1ccnc(NS(=O)(=O)c2ccc(NC(=O)c3ccc(S(=O)(=O)N4CC(C)OC(C)C4)cc3)cc2)n1 (stereo not given)	-2%	1.3%	-8	-3%

# From PubChem BioAssay
